D2 potentiator: human D2 receptor positive allosteric modulation; DiscoveRx D2 beta-arrestin cells, luminescence, 90 min; 100% = 57 uM dopamine signal; AID 624464; 360,000 compounds, 0.23% hits; potentiation, % (concentration not given with the values); active = potentiation of 50% or more; inconclusive = 30% to 50%; inactive = 30% or less;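 further: tested on top of an EC20 dose of dopamine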
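PathHunter D2 cells, attached overnight at 37 deg C, received compound in DMSO plus dopamine at EC20 (50 nM final) for 90 min at 37 deg C. Beta-arrestin recruitment was read as luminescence after 1 h with detection reagent at ambient temperature.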
TRPML1 blocker: inhibitors of human TRPML1 channel; Q9GZU1; TRPML1-inducible cells, Ca2+ dye fluorescence, FDSS; stronger effect = lower value; inhibition of EC80 agonist-evoked calcium signal; activity change, negative = inhibition, % (concentration not given with the values); 390,000 compounds, 0.02% hits; AID 624415; in the data active means activity change below about -50%; inconclusive means about -30% to -50%; inactive means above about -30%;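 further: stimulus is agonist 54-4 at its EC80 concentration; on the % scale 0 is the no-effect control and ±100 the full control effect; the text of the record puts the active cut at -80%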
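TRPML1-DL cells, Tet-induced overnight (~16 h, 37 °C) at 1,500 cells/well, were loaded with Ca8 no-wash dye plus quencher for 45-90 min at room temperature. Compounds were pinned during FDSS kinetic reading; agonist 54-4 at EC80 (4 uM final) then added.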
PINK1 modulator: changes PINK1 expression; PINK1 immunofluorescence, high-content cytometry, 24 h; Potency, µM (doses to about 76.6 µM), inactives show at the highest dose activation (PINK1 increase), usual class: activators; 410,000 compounds, 0.2% hits; AID 624263; active = well fitted activation curve with a large enough effect; inconclusive = small, poorly fitted or top-dose-only effect; inactive = flat fitted curve, though single readings scatter; cell line not stated here;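 further: potency means the concentration at half of the fitted maximal effect; % of control where 0% means no effect; nearly all actives have a fitted effect of over 65% in size; a mitochondrial uncoupler was the plate control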
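PINK1 protein, normally rapidly degraded, was detected by immunofluorescence after 24 hour compound treatment of a stable cell line. Titration data (5 concentrations) came from laser-scanning cytometry, with CCCP-treated wells as controls.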
Six1-Eya2 inh: inhibitors of human Six1/Eya2 interaction | Q15475+O00167 | activity change, % (test concentration not listed) | 360,000 compounds, 0.56% hits | AlphaScreen GST-Six1/His-Eya2 binding, biochemical; stronger effect = lower value; control for the full effect not named in the record; in the data active = activity change below about -65%; inconclusive = about -30% to -65%; inactive = above about -30%; further: on the % scale 0 is the no-effect control and ±100 the full control effect
Target sequence (O00167 whole entry, looked up): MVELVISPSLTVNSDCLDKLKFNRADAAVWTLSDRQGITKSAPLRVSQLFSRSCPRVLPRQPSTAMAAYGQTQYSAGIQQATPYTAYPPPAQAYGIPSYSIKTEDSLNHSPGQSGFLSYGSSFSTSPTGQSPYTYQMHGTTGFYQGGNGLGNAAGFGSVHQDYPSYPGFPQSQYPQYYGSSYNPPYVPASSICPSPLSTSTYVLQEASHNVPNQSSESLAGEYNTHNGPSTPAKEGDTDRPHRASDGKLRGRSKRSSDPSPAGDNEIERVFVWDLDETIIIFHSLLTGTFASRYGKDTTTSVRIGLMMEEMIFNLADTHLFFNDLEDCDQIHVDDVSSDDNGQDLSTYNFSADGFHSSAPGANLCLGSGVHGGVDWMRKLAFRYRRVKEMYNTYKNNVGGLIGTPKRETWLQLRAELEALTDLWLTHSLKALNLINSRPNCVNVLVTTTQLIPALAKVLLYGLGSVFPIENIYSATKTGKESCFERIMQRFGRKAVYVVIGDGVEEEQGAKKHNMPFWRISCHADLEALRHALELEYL
Target sequence (Q15475 whole entry, looked up): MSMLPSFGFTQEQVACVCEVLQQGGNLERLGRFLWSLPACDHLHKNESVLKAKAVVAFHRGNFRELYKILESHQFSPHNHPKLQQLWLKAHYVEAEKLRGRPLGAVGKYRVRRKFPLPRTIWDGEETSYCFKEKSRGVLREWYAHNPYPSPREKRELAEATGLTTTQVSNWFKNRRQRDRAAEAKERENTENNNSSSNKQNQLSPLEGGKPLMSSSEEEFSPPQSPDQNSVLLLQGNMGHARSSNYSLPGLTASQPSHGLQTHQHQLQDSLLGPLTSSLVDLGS
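Compounds are tested against tagged Six1 and Eya2 proteins bridged by glutathione donor and nickel acceptor beads; after a one-hour incubation at 37 °C without light, AlphaScreen emission is recorded.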
D2 ag: agonists of human D2 dopamine receptor (beta-arrestin); P14416; DiscoveRx PathHunter D2 beta-arrestin, luminescence, 90 min; 100% = 57 uM dopamine signal; activation, % (test concentration not listed); 360,000 compounds, 0.084% hits; AID 624465; in the data active = activation above about 40%; inconclusive = about 15% to 40%; inactive = below about 15%; further: compound concentration not given in the record; the text of the record calls up to 30% inactive
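Agonist mode: compounds alone added to overnight-plated D2 PathHunter cells for 90 min at 37 C, with 57 uM final dopamine (EC100) defining full response. Beta-arrestin recruitment detected by chemiluminescent reagent, read after 1 h at ambient temperature.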
TRPML1 agonist: human mucolipin-1 channel agonism. Q9GZU1. TRPML1-expressing cells, Ca2+ dye fluorescence, FDSS; host cell line not named in the record; reference of the full effect not given here. activation, % (no concentration beside the values). 410,000 compounds, 0.12% hits; in the data active = activation above about 50%; inconclusive = about 30% to 50%; inactive = below about 30%; further: 0% is about no effect; the text of the record puts the active cut at 80%
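Agonist activity was taken from a 110 s kinetic Ca2+ dye read on the FDSS after pinning compounds onto TRPML1-DL cells. The cells were seeded at 1,500/well with Tet inducer, incubated about 16 h, then dye-loaded at room temperature.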
* marks the source's active call; other numbers are inactive results; [ ] = remark or other dose.

`O=C(NCCCSc1ccccc1)c1cnc(Cl)c(Cl)c1` gave D2 potentiator -5, TRPML1 blocker 5, PINK1 modulator 7.3%, Six1-Eya2 inh 2, D2 ag 0.0 and TRPML1 agonist 0.5.
`CN(CC(=O)NCc1ccc(F)cc1)S(=O)(=O)c1ccc2[nH]c3c(c2c1)CCCC3` gave TRPML1 blocker -21, PINK1 modulator inconclusive and TRPML1 agonist 0.9.
Cc1cccc(NC(=O)c2ccc(C)c(S(=O)(=O)N3CCOCC3)c2)n1 was read as D2 potentiator -6, TRPML1 blocker -15, PINK1 modulator 1.5%, Six1-Eya2 inh -4, D2 ag -5.9 and TRPML1 agonist 1.1.
For Cc1noc(C)c1S(=O)(=O)NC(=O)C1(C)CCN1C(=O)C1(c2ccc(Cl)cc2)CC1 (stereo unspecified) the results were D2 potentiator 0, PINK1 modulator 0.5%, Six1-Eya2 inh 5, D2 ag -1.1 and TRPML1 agonist -0.6.
CCCCOc1ccccc1C(=O)NNC(=S)NC(=O)c1ccccc1[N+](=O)[O-] was read as D2 potentiator -8, TRPML1 blocker 19, PINK1 modulator 1.3%, Six1-Eya2 inh -12, D2 ag -6.2 and TRPML1 agonist 4.9.
`Cc1ccc(N(C(=O)CNC(=O)c2ccco2)C(C(=O)NC2CCCC2)c2ccncc2)cc1` (stereo unspecified) gave D2 potentiator 0, TRPML1 blocker -5, PINK1 modulator 0.8%, Six1-Eya2 inh 5, D2 ag 2.0 and TRPML1 agonist 0.4.
For CCc1cccc(NC(=O)c2ccc3c(=O)n4c(nc3c2)CCCCC4)c1 the results were D2 potentiator -7, PINK1 modulator 2.4%, Six1-Eya2 inh -6 and D2 ag -5.8.
C=CCNC(=O)c1cccc2c1C(=O)c1ccc(N3CCCC3)cc1S2(=O)=O was read as D2 potentiator -2, TRPML1 blocker 6, PINK1 modulator 0.6%, Six1-Eya2 inh -2, D2 ag -3.1 and TRPML1 agonist 4.1.
COCCn1c(C)cc(C(=O)CSc2nc3ccccc3o2)c1C was read as D2 potentiator 4, TRPML1 blocker 19, PINK1 modulator 5.0%, Six1-Eya2 inh -8, D2 ag 0.4 and TRPML1 agonist 1.6.
For Cc1cc(NC(=O)C2CC(=O)N(c3ccc(F)cc3)C2)no1 (stereo unspecified) the results were D2 potentiator -6, TRPML1 blocker -15, PINK1 modulator -2.5%, Six1-Eya2 inh -2, D2 ag -2.9 and TRPML1 agonist 0.2.
For Cc1cc(C)n2nc(SCC(=O)N/N=C/c3ccccn3)nc2n1 the results were D2 potentiator -32, TRPML1 blocker -12, PINK1 modulator -1.8%, Six1-Eya2 inh -16, D2 ag -0.8 and TRPML1 agonist -0.1.
For O=C(c1cccc(Oc2ccc([N+](=O)[O-])cc2Cl)c1)N1CCCCC1 the results were D2 potentiator 0, TRPML1 blocker -3, PINK1 modulator -1.9%, Six1-Eya2 inh -2, D2 ag -3.9 and TRPML1 agonist 1.4.
COc1ccc(C2CC(c3cccs3)=NN2C(=O)COC(=O)c2cc3ccccc3cc2O)cc1OC (stereo unspecified) was read as D2 potentiator -1, TRPML1 blocker 13, PINK1 modulator -5.2%, Six1-Eya2 inh -2, D2 ag 1.0 and TRPML1 agonist -0.3.
COc1ccc(CSc2nnc(-c3ccncc3)n2C)cc1F was read as D2 potentiator 2, TRPML1 blocker -2, PINK1 modulator 0.0%, Six1-Eya2 inh 1, D2 ag 1.9 and TRPML1 agonist -0.4.
Screening Cc1cccc(NC(=O)CNC(=O)CN2C(=O)NC(C)(CCC(C)C)C2=O)c1C (stereo unspecified) returned D2 potentiator 7, TRPML1 blocker 2, PINK1 modulator 0.7%, Six1-Eya2 inh 12, D2 ag 3.7 and TRPML1 agonist 0.4.
`Cc1ccc(CNc2nc(-c3ccco3)nn2C(=O)c2ccccc2[N+](=O)[O-])cc1` gave TRPML1 blocker 24, PINK1 modulator 0.6% and TRPML1 agonist 2.1.
C(=N\Nc1nc(N2CCCC2)nc(N2CCCC2)n1)/c1cccnc1 was read as D2 potentiator -8, TRPML1 blocker -11, PINK1 modulator -1.4%, Six1-Eya2 inh 9, D2 ag -2.7 and TRPML1 agonist -0.4.
CCn1c(CN2CCN(C(=O)c3ccco3)CC2)nc2c1c(=O)n(C)c(=O)n2C was read as D2 potentiator -3, TRPML1 blocker 0, PINK1 modulator -0.8%, Six1-Eya2 inh -19, D2 ag -3.0 and TRPML1 agonist -0.3.
`CC1=Nc2ccc(C)c3nc(C)cc(c23)N1c1ccc(C)cc1` gave D2 potentiator 3, TRPML1 blocker 16, PINK1 modulator 0.3%, Six1-Eya2 inh 10, D2 ag -2.5 and TRPML1 agonist 0.9.
For CCOC(=O)c1c(C)nc(C)c(C(=O)OCC)c1-c1ccc(Br)cc1 the results were D2 potentiator -2, TRPML1 blocker 40, PINK1 modulator 8.3%, Six1-Eya2 inh 4, D2 ag -3.3 and TRPML1 agonist 0.4.

Gathered by group, those above containing a nitro group on carbon.
CCCCOc1ccccc1C(=O)NNC(=S)NC(=O)c1ccccc1[N+](=O)[O-] was read as D2 potentiator -8, TRPML1 blocker 19, PINK1 modulator 1.3%, Six1-Eya2 inh -12, D2 ag -6.2 and TRPML1 agonist 4.9.
For O=C(c1cccc(Oc2ccc([N+](=O)[O-])cc2Cl)c1)N1CCCCC1 the results were D2 potentiator 0, TRPML1 blocker -3, PINK1 modulator -1.9%, Six1-Eya2 inh -2, D2 ag -3.9 and TRPML1 agonist 1.4.
`Cc1ccc(CNc2nc(-c3ccco3)nn2C(=O)c2ccccc2[N+](=O)[O-])cc1` gave TRPML1 blocker 24, PINK1 modulator 0.6% and TRPML1 agonist 2.1.

The results go on.
For COc1ccc(-c2onc(C)c2C)cc1S(=O)(=O)NCc1ccco1 the results were TRPML1 blocker 8, PINK1 modulator 10% and TRPML1 agonist -0.2.
`O=C(OCC(=O)N1CCN(C(=O)c2ccco2)CC1)c1cc(-c2ccccc2)nc2ccccc12` gave D2 potentiator 5, TRPML1 blocker 4, PINK1 modulator -2.1%, Six1-Eya2 inh -10, D2 ag -2.8 and TRPML1 agonist -0.1.
O=S(=O)(Nc1nc2ccccc2nc1Cl)c1ccc(Br)cc1 was read as D2 potentiator 3, TRPML1 blocker -10, PINK1 modulator 8.3%, Six1-Eya2 inh 14, D2 ag -0.8 and TRPML1 agonist 1.8.
COc1ccccc1N1CCN(C(=O)c2c(C)cc(=O)oc2C)CC1 was read as D2 potentiator -31, TRPML1 blocker 8, PINK1 modulator -1.0%, Six1-Eya2 inh 6, D2 ag 0.6 and TRPML1 agonist -0.5.
Screening Cc1ccc(C(=O)O/N=C/c2c(Cl)n(C)c3ccccc23)cc1 returned D2 potentiator -12, TRPML1 blocker 13, PINK1 modulator -0.9%, Six1-Eya2 inh 7, D2 ag 1.7 and TRPML1 agonist 1.0.
`C=C(C)COc1ccc(-c2nc(N)ncc2Oc2ccc(OC)cc2)c(O)c1` gave D2 potentiator -5, TRPML1 blocker 29, PINK1 modulator -1.9%, Six1-Eya2 inh -6, D2 ag 0.9 and TRPML1 agonist 2.7.
For c1ccc(Cc2nn3c(Cn4nnc5ccccc54)nnc3s2)cc1 the results were D2 potentiator -12, TRPML1 blocker 4, PINK1 modulator -11%[38.3 µM], Six1-Eya2 inh -4, D2 ag -5.3 and TRPML1 agonist -0.9.
`CCOC(=O)c1c(C)[nH]c(C(=O)N(C)CC(=O)Nc2ccc(OC)cc2)c1C` gave D2 potentiator -2, TRPML1 blocker -1, PINK1 modulator 11%, Six1-Eya2 inh 0, D2 ag -3.6 and TRPML1 agonist 0.5.
`CN(C)S(=O)(=O)c1ccc(Cl)c(NC(=O)CSc2nc3c(cc2C#N)C(=O)CCC3)c1` gave D2 potentiator -15, TRPML1 blocker 47, PINK1 modulator 6.5%, Six1-Eya2 inh -6, D2 ag -3.0 and TRPML1 agonist -0.1.
For CN(CCO)C(=O)c1nc[nH]c1C(=O)N1CCN(C(=O)OC(C)(C)C)CC1 the results were D2 potentiator -1, TRPML1 blocker 26, PINK1 modulator 1.4%, Six1-Eya2 inh 5, D2 ag -11 and TRPML1 agonist -0.4.
For COc1nnc(-c2ccc(N3CCOCC3)c(NC(C)=O)c2)c2ccccc12 the results were D2 potentiator -9, TRPML1 blocker -1, PINK1 modulator 0.4%, Six1-Eya2 inh -2, D2 ag -2.1 and TRPML1 agonist -0.9.
For Cc1c(C(=O)O)c(C(=O)O)c2n1CCS2 the results were D2 potentiator -6, TRPML1 blocker 30, PINK1 modulator -0.4%, Six1-Eya2 inh -9, D2 ag -0.5 and TRPML1 agonist -0.7.
For COC(=O)C1=NNC2(C)C(=O)N(c3ccc(C)cc3)C(=O)C12 (stereo unspecified) the results were D2 potentiator -7, TRPML1 blocker -11, PINK1 modulator -0.4%, Six1-Eya2 inh -1, D2 ag -4.0 and TRPML1 agonist 0.7.
For Cc1ccc(C(C)C)cc1OCC(=O)Nc1ccccc1N1CCCC1 the results were D2 potentiator -11, TRPML1 blocker 1, PINK1 modulator 5.6%, Six1-Eya2 inh -6, D2 ag -1.5 and TRPML1 agonist 4.3.
Screening Cc1ccc(-c2cc(=O)[nH]c3ccccc23)cc1 returned D2 potentiator -1, TRPML1 blocker 22, PINK1 modulator 0.7%, Six1-Eya2 inh -3, D2 ag -1.6 and TRPML1 agonist 0.1.
`CCn1cc(C(=O)NCCCOC)c2cc(OC)c(OC)cc2c1=O` gave D2 potentiator -8, TRPML1 blocker -6, PINK1 modulator -0.1%, Six1-Eya2 inh 1, D2 ag -4.3 and TRPML1 agonist 0.7.
Screening CC1(C)CC[C@@]23CC[C@]4(C)[C@@](OC2=O)(C3C1)[C@H]1O[C@H]1C1[C@@]2(C)CC[C@H](O)C(C)(C)C2CC[C@]14C (stereo partly specified) returned D2 potentiator -8, PINK1 modulator 2.8%, Six1-Eya2 inh 0 and D2 ag 6.0.
For CC(C)CNC(=O)c1cccc(NC(=O)Cc2ccc(Br)cc2)c1 the results were D2 potentiator -21, TRPML1 blocker 50, PINK1 modulator 12%, Six1-Eya2 inh -1, D2 ag 8.5 and TRPML1 agonist 7.5.
Screening NC(=O)CC(NC(=O)Cc1ccc(Cl)cc1)c1ccc(NC2CCN(Cc3ccccc3)CC2)c([N+](=O)[O-])c1 (stereo unspecified) returned D2 potentiator -18, TRPML1 blocker -17, PINK1 modulator 0.3%, Six1-Eya2 inh -6, D2 ag -2.2 and TRPML1 agonist -0.4.
`Cc1ccn(C(C)CC(=O)N2CCc3ccccc32)n1` (stereo unspecified) gave D2 potentiator -1, TRPML1 blocker 21, PINK1 modulator 3.0%, Six1-Eya2 inh 2, D2 ag -1.5 and TRPML1 agonist 0.3.
CCn1ccc2c(OCC(=O)NCc3ccc(F)cc3)cccc2c1=O was read as TRPML1 blocker 21, PINK1 modulator 1.4% and TRPML1 agonist -0.6.
`COc1cc(/C=N/n2cnnc2)ccc1OC(=O)c1cccnc1` gave D2 potentiator -2, TRPML1 blocker -5, PINK1 modulator inconclusive, Six1-Eya2 inh -2, D2 ag -0.1 and TRPML1 agonist 1.7.

Screens: PubChem, National Center for Advancing Translational Sciences (NCATS)
